Screens as filed in PubChem BioAssay.
miR-21 reporter: miR-21 reporter, rising signal; 340,000 tested, under 10 active; HeLa miR-21 FLuc reporter, luciferase, 48 h; AID 2288; Potency, µM (highest dose often 38.3 µM), for the others: top-dose reporter change, positive = more light; active = well fitted rising curve with a large enough effect; inconclusive = small, poorly fitted or top-dose-only effect; inactive = no such curve, though single readings can be large or run the other way;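 also: % of control where 0% means no effect; miR-21 action dims this reporter so a rising signal means less miR-21 action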
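Luminescence from a firefly luciferase reporter carrying a miR-21 binding site downstream, stably expressed under a CMV promoter in HeLa cells that make miR-21 endogenously, reports miRNA modulation after 48 h compound exposure up to approximately 40uM final.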
GLA inh pH 4.5: blocks human alpha-galactosidase A at pH 4.5; P06280; purified enzyme, 4-MU-alpha-Gal fluorescence, pH 4.5; activity change, negative = inhibition, % at 105 µM; 230,000 tested, under 10 active; AID 1467; inconclusive = small, poorly fitted or top-dose-only inhibition, or a rising curve; inactive = flat fitted curve, though single readings scatter; no compound was filed as active;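 also: 0% = full activity with enzyme and -100% = basal without enzyme; dose as in the result columns while the protocol names 77 µM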
Target sequence (P06280 whole entry, looked up): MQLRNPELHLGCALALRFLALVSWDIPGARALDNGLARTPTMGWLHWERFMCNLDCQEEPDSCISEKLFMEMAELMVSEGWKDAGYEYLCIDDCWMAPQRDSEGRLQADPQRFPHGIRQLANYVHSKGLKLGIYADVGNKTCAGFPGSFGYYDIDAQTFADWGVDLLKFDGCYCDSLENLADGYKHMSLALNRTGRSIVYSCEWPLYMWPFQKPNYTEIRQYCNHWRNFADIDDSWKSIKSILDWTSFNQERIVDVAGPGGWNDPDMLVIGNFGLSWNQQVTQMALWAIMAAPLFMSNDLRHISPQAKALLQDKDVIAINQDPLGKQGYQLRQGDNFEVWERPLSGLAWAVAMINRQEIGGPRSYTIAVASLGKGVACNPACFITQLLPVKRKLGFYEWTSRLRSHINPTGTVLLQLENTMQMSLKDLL
Rango-impB inh: Rango-importin beta binding inhibition. Rango CFP/YFP FRET sensor + importin beta, 45 min. 340,000 tested, 0.031% active. Potency, µM (top dose mostly 92.2 µM), without a hit: at the highest dose inhibition of complex formation; active = rising FRET ratio curve, often small or poorly fitted; inconclusive = mostly compound fluorescence or quenching in the first reads; inactive = flat curves in all reads;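 also: potency is read from the fitted curve at half-maximal effect; 0% = DMSO wells and 100% = buffer wells lacking importin beta; nearly all actives have a fitted effect of over 15% in size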
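FRET biosensor Rango (snurportin 1 IBB between N-terminal EYFP and C-terminal Cerulean), 50 nM in PBS/1 mM DTT/0.02% Tween-20/0.1% BSA, preincubated 5 min RT with compound; 0.125 microM importin beta added, 45 min RT, CFP/YFP FRET ratio read.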
Rango release inh: prevents RanGTP from dissociating the Rango-importin beta complex. O95149+P62826. 340,000 tested, 0.071% active. Potency, µM (highest dose often 46.1 µM), without a hit: at the top dose activity change, negative = inhibition. Biochemical FRET Rango-importin beta, RanGTP-induced dissociation; active means falling FRET ratio curve, often poorly fitted, with flat reads before Ran was added; inconclusive means other falling curves, or compound fluorescence or quenching; inactive means flat or rising ratio curve;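 also: potency is read from the fitted curve at half-maximal effect; % of control where 0% means no effect; nearly all actives have a fitted effect of over 45% in size; -100% = wells without RanGTP and RCC1; the record marks most hits as doubtful in a second field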
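Compounds sat 5 min at room temperature with 0.1 uM Rango biosensor plus 0.25 uM importin beta, then FRET pre-read. RanGTP-RCC1 (0.6 uM Ran, 2mM GTP, 0.2 uM RCC1) added for 45 min, and the CFP/YFP post-read measured blocked complex dissociation.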
An asterisk follows results filed as active; ? = inconclusive; . = not tested or not shown.

SMILES	miR-21 reporter	GLA inh pH 4.5	Rango-impB inh	Rango release inh
Cc1nc(SCC(=O)NCC2CCCO2)c2c3c(sc2n1)CCC3 (centres undefined)	-6%	.	-2.3%	14%
CC(C)CN=CC1=C(O)c2ccccc2C1=O	-44%	3	5.0%	1%
CCCNC(=O)c1cc2nc(-c3ccccc3)cc(C(F)(F)F)n2n1	-7%	0	-1.8%	-5%
Cc1ccc(C(C)(C)NC(=O)C2CCC(=O)N(CCCN3CCOCC3)C2)cc1 (centres undefined)	0%	.	-2.6%	4%
CC(SCC(=O)NC(C)C1CC2CCC1C2)C(=O)O (centres undefined)	0%	-3	-1.2%	12%
CCN1CCCC1CNC(=O)C(NC(=O)C1CCC(C)CC1)C(C)C (centres undefined)	0%	-3	-2.6%	6%
COc1ccc2c(=O)c3c(=O)n(-c4ccccc4)c(-c4ccc(C)cc4)nc3oc2c1	0%	4	1.2%	11%
CCCCSc1nnc([C@@H](NC(=O)OC(C)(C)C)C(C)C)o1	-12%	-4	-2.3%	1%
Cc1ccnc(NC(=O)C2(c3cccs3)CCOCC2)c1	-8%	2	2.2%	0%
O=C(/C=C/c1ccccc1)Nc1scc(-c2ccccc2)c1C(=O)O	5%	-2	0.3%	8%
COCCCNC(=O)CCn1c(=O)c2ccccc2n(CC(=O)Nc2c(C)cccc2C)c1=O	-1%	7	2.3%	13%
CCCn1c(=O)[nH]c(=O)c2c1nc(-c1ccc(C#N)cc1)n2CCOC	0%	.	-2.7%	2%
COc1cc(NC(=O)c2ccccc2F)ccc1NC(=O)c1cc2ccccc2o1	-8%	.	2.9%	3%
Cc1ccc2c(c1)C(=O)N1[C@H]3c4cc(Br)ccc4OC[C@@H]3[C@H](c3ccccc3)[C@]1(C)C(=O)N2	.	.	?	3%
CCCN(C(=O)c1cccc(S(=O)(=O)N2CCCc3ccccc32)c1)C1CCS(=O)(=O)C1 (centres undefined)	.	.	-1.5%	-11%
COc1ccccc1Nc1nc(N)nc(CSC(=S)N2CCCCC2)n1	-69%	-1	5.5%	-3%
Cc1ccc(NC(=O)CSc2n[nH]c(-c3ccncc3)n2)cc1	-13%	-4	2.8%	-4%
CCn1c(SCC(=O)Nc2ccc(C(C)=O)cc2)nc2c([nH]c3ccccc32)c1=O	3%	.	-3.0%	35%
O=C(/C=C/c1ccc(S(=O)(=O)NCc2ccco2)cc1)NCc1ccccc1Cl	-7%	0	-0.6%	-14%
Cn1ncc(Cl)c1C(=O)Nc1cccc(Cl)c1	-9%	1	3.8%	2%
Nc1c(C(=O)N2CCCC2)sc2nc3c(cc12)CCCCCC3	-40%	15	?	?
CC1CCCCN1C(=O)c1ccc(COc2ccc([N+](=O)[O-])cc2)o1 (centres undefined)	10%	0	-0.8%	14%
CC(C)NC(=O)c1cc2n(n1)C(C(F)(F)F)CC(c1ccco1)N2 (centres undefined)	-7%	-15	2.4%	11%
O=C(c1cc2c(s1)CCCC2)N1CCN(c2ccccc2)CC1	-39%	0	-2.4%	0%
CC1CC(C)CN(S(=O)(=O)c2ccc(C(=O)NCc3ccc4c(c3)OCO4)cc2)C1 (centres undefined)	0%	-8	-0.2%	12%
Fc1cccc(CSc2nnc3ccc(-c4ccncc4)nn23)c1	-15%	7	-1.2%	-12%
O=C(O)c1ccc(C=NN=C2c3ccccc3-c3ccccc32)cc1	.	.	-0.4%	2%
CC1CCC/C(=N/NC(=O)c2ccccc2-n2cccc2)C1 (centres undefined)	-8%	-9	-5.1%	23%
O=C(CSc1nn(-c2ccc(F)cc2)c(=S)s1)N1CCN(C(=O)c2ccco2)CC1	-4%	2	-1.1%	28%
CC1(C)C2CC[C@]3(C)C(CC=C4[C@@H]5C[C@@](C)(CO)[C@@H](O)C[C@]56C[C@@H](OC6=O)[C@]43C)[C@@]2(C)CC[C@@H]1O (some centres undefined)	.	.	1.2%	14%
Cc1ccc(-c2cc(-c3ccccc3)c3c(N)c(S(C)(=O)=O)sc3n2)cc1	-6%	-3	?	?
CCCCn1c2ccc(F)cc2c2nnc(NN)nc21	-10%	-3	-0.1%	28%
Cc1oc(S(=O)(=O)N2CCCC2)cc1C(=O)Nc1ccc(F)cc1	12%	-2	0.3%	-9%
CC(C(=O)NCc1ccccc1)n1cc([N+](=O)[O-])cn1 (centres undefined)	1%	.	-2.0%	7%
CCCc1nc2ccccc2n1Cc1ccccc1OC	9%	-16	2.6%	0%
CCN(CC)C(=O)CSc1nc2ccccc2c(=O)n1-c1ccccc1OC	-1%	0	4.1%	-6%
COc1ccc(NC2c3ccccc3C(=O)N2c2ccccn2)cc1Cl (centres undefined)	-12%	-8	0.9%	-18%
CC(NCc1ccc(S(N)(=O)=O)cc1)C(=O)NCc1ccccc1 (centres undefined)	2%	.	-0.1%	15%
CCOc1ccc(CN2C(=O)c3ccccc3C2=O)cc1C(=O)Nc1nnc(SCC)s1	-4%	-1	4.8%	-2%
Cc1c(C=O)cnn1CCC(=O)O	.	.	-2.4%	15%
Cc1cccc(NC(=O)C(=O)NCc2ccccn2)c1	-41%	-3	-7.0%	2%
CC1CCN(C(=O)CSc2nnc(CNC(=O)c3ccco3)o2)CC1	-7%	-2	1.8%	4%
CSc1sc(C(=O)N(C)C)cc1S(=O)(=O)C(C)C	-3%	-1	1.4%	-5%
CC(C)(C)C(=O)NCc1ccc(C(=O)CSc2nnc(-c3ccncc3)n2C2CC2)s1	.	.	-3.1%	-9%
Cc1ccc(F)cc1NC(=O)CCc1c(C)[nH]c(=O)c(C#N)c1C	-4%	.	-1.0%	-11%
O=C(Nc1cc(S(=O)(=O)Nc2ccc(Cl)cc2)ccc1O)c1ccc(S(=O)(=O)N2CCCCCC2)cc1	0%	9	-0.5%	-4%
CN(C)c1ccc(/C=C/C(=O)c2ccc(O)cc2)cc1	.	.	?	?
CCc1c(O)nc(SC2CC(=O)N(c3ccccc3)C2=O)[nH]c1=O (centres undefined)	-4%	2	1.1%	-5%
COCCN(C(=O)c1ccco1)c1nnc(-c2ccc(OC)c(OC)c2)s1	-3%	4	-0.1%	7%
CCOC(=O)c1sc(N/N=C/c2ccccc2)nc1C	-58%	4	-2.5%	-14%
Cn1c(=O)c(=O)n(C)c2cc(S(=O)(=O)Nc3ccc(OC(F)(F)F)cc3)ccc21	7%	10	-4.0%	6%
Cc1nn(Cc2ccccc2Cl)c(C)c1C(=O)NCCN1C(=O)S/C(=C\c2ccccc2)C1=O	-4%	0	0.7%	3%
COc1ccccc1NS(=O)(=O)c1ccc(C(=O)NCC2(N(C)C)CCCCC2)cc1	.	.	2.3%	-3%
CCOC(=O)C1=C(Nc2ccc(Cl)cc2)OCC1=O	-8%	-7	-0.2%	-3%
CC(C)C(=O)N1CCN(c2ccccc2NC(=O)c2ccc(C#N)cc2F)CC1	-1%	-4	-0.5%	4%
CCOC(=O)c1cc(CC)sc1/N=C/C1C(=O)CCCC1=O	0%	2	?	?
COc1ccc(CC(=O)Nc2c(C(=O)N3CCN(c4ccccc4OC)CC3)oc3ccccc23)cc1OC	7%	.	6.9%	4%
Cc1ccc(C)c(N(CC(=O)NC2CCCCC2)C(=O)CNC(=O)c2ccco2)c1	0%	.	-0.6%	3%
Cn1c(=O)[nH]c(=O)c2c1nc(N1CCOCC1)n2CC(=O)c1ccccc1	3%	-2	0.4%	-7%
OC(CCCC(O)c1ccccc1)c1ccccc1 (centres undefined)	.	.	-0.6%	0%
More records:
SMILES	miR-21 reporter	GLA inh pH 4.5	Rango-impB inh	Rango release inh
CCc1ccc(N2CC(C(=O)NCc3ccco3)CC2=O)cc1 (centres undefined)	-5%	-4	-5.8%	7%
CCOc1ccc2nc(N/C(N)=N/S(C)(=O)=O)nc(C)c2c1	-1%	?	-3.3%	19%
COCCNC(=O)c1cc(-c2ccccc2)nn1CC1CC(c2cccnc2)=NO1 (centres undefined)	.	.	-0.1%	12%
CCc1ccccc1NC(=O)CCC(=O)Nc1nnc(C(C)C)s1	1%	.	-0.3%	2%
Cc1ccc2nc(NC(=O)CSc3nc4ccccc4o3)sc2c1	-41%	-4	-0.9%	4%
Cc1cc(Cl)ccc1OCC(=O)NCCCn1ccnc1	-4%	6	3.5%	0%
CCN1CCCC1CNC(=O)Cn1nc(C)n2nc(-c3ccccc3)cc2c1=O (centres undefined)	-1%	.	2.4%	5%
O=c1cc(-c2ccccc2)nc2cc(-c3ccc(F)cc3)[nH]n12	1%	.	-0.3%	-7%
COc1ccc(/C=N/NC(=O)CNC(=O)C2COc3ccccc3O2)cc1OC (centres undefined)	-4%	4	-1.8%	7%
Cc1ccc(S(=O)(=O)N/N=C/c2cccc3nccnc23)cc1	1%	-6	-1.7%	7%
CC1CCCC(NC(=O)COC(=O)Cc2ccc(Br)cc2)C1C (centres undefined)	-2%	2	0.1%	-12%
CC(C)(C)c1ccc(C(=O)Nc2ccc(F)cc2)s1	-16%	3	-0.5%	-15%
Cn1c(=O)[nH]c(=O)c2c1nc(NCc1ccccc1)n2Cc1ccc(F)cc1	-3%	.	-0.9%	-12%
O=C(NC1CCCC1)C1CC(O)CN1C(=O)Nc1ccccc1 (centres undefined)	3%	.	0.6%	-2%
COc1ccc(Cl)cc1C(=O)NNC(=O)c1n[nH]c2ccccc12	.	.	-2.2%	35%
O=C(c1ccc(Cl)cc1)N1CCC(N2CCC(C(=O)N3CCOCC3)CC2)CC1	-2%	.	-1.0%	16%
O=C(CCN1C(=O)COc2ccccc21)NCc1cccs1	-6%	14	3.2%	1%
COc1cccc(N(CC(=O)O)S(=O)(=O)c2ccccc2)c1	-3%	-6	-2.1%	0%
O=C1CSC(=NC2CCCCC2)N1	18%	-3	0.3%	-1%
C#C[C@]1(O)CC[C@H]2[C@@H]3CCc4cc(OC5CCCC5)ccc4[C@H]3CC[C@@]21C	-9%	-29	2.6%	7%

Not a retest: entries from further up.
SMILES	miR-21 reporter	GLA inh pH 4.5	Rango-impB inh	Rango release inh
CCc1ccc(N2CC(C(=O)NCc3ccco3)CC2=O)cc1 (centres undefined)	-5%	-4	-5.8%	7%
CCOc1ccc2nc(N/C(N)=N/S(C)(=O)=O)nc(C)c2c1	-1%	?	-3.3%	19%

(cont.)
SMILES	miR-21 reporter	GLA inh pH 4.5	Rango-impB inh	Rango release inh
O=C(N/N=C/c1ccco1)c1cc2ccccc2o1	-20%	.	0.9%	-1%
CCOC(=O)C1CCCN(C(=O)c2ccc(NC(=O)CC3SC(N4CCCC4)=NC3=O)cc2)C1 (centres undefined)	.	.	0.1%	4%
O=C(NCC(=O)N1CCN(c2ncccn2)CC1)c1cccs1	-32%	12	0.8%	-22%
CCOC(=O)C1=C(C)C(c2cccc(Oc3ccccc3)c2)NC(=S)N1 (centres undefined)	29%	-1	3.3%	1%
O=C(NCCCN1CCOCC1)/C(=C/c1ccc(F)cc1)NC(=O)c1ccccc1	2%	-1	0.8%	0%
CN(C)c1nccc(NCc2ccccc2)c1C#N	-37%	-6	-3.3%	28%
Cc1cc(NC(=O)C2CCCCC2C(=O)O)no1 (centres undefined)	-2%	0	5.2%	0%
CSc1ncccc1C(=O)OCC(=O)NC12CC3CC(CC(C3)C1)C2	.	.	-0.6%	0%
COc1cc(OC)c(NC(=O)c2ccc(F)cc2)cc1Cl	-13%	-15	-2.2%	3%
C/C(=N\NC(=O)C1CC1)c1ccc(N2CCOCC2)cc1	-12%	-2	-3.2%	8%
C[n+]1c2n(c3ccccc31)N=C(c1ccc(-c3ccccc3)cc1)CS2	?	-1	1.7%	11%
COCCNS(=O)(=O)c1ccc(OCC(=O)OC)c(Cl)c1	-4%	-3	-4.6%	20%

One compound at a time, from the list above. Values in the order: miR-21 reporter | GLA inh pH 4.5 | Rango-impB inh | Rango release inh
`C[n+]1c2n(c3ccccc31)N=C(c1ccc(-c3ccccc3)cc1)CS2` reads ? | -1 | 1.7% | 11%
`Cc1cc(NC(=O)C2CCCCC2C(=O)O)no1` (centres undefined) reads -2% | 0 | 5.2% | 0%

A different layout for two compounds above.
O=C(NCC(=O)N1CCN(c2ncccn2)CC1)c1cccs1
  miR-21 reporter = -32%
  GLA inh pH 4.5 = 12
  Rango-impB inh = 0.8%
  Rango release inh = -22%
CCOC(=O)C1=C(C)C(c2cccc(Oc3ccccc3)c2)NC(=S)N1 (centres undefined)
  miR-21 reporter = 29%
  GLA inh pH 4.5 = -1
  Rango-impB inh = 3.3%
  Rango release inh = 1%

An excerpt, so the mix of outcomes need not match the whole.
